# Assay outcomes as filed in PubChem.
# PMP22 txn: PMP22 gene transcription modulation. S16 Pmp22-F2sN Schwann cells (luciferase reporters placed in the Pmp22 gene), FLuc/NLuc coincidence luminescence, 24 h. Potency, µM (highest dose often 57.5 µM), inactives show at the top dose activity change, negative = inhibition, usual class: inhibitors. hit rate 2% among 43,000. AID 1508649; active = clear falling dose curves in both reporters; inconclusive = both reporters move, but less clearly or upward; inactive = either reporter flat; the % is the NLuc reporter signal; also: % is scaled to controls: 0 for no effect and ±100 for the full control effect; some results filed as inactive show a strong effect at the top dose
#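 Schwann cells carrying the coincidence reporter were exposed to library compounds for 24 h at 37C, then lysed and read for FLuc and, after quenching, NLuc luminescence on a CCD imager.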
# HTT prom inh: inhibits huntingtin promoter activity. HEK293 HTT promoter firefly luciferase reporter (activity 0% = vehicle and -100% = no light), 24 h. Potency, µM (titrated, usually from 57.5 µM), inactives show top-dose activity change, negative = inhibition, usual class: inhibitors. hit rate 0.93% among 48,000. AID 1508623; active = well fitted inhibition curve with a large enough effect; inconclusive = small, poorly fitted or top-dose-only effect; inactive = no such curve, though single readings can be large or run the other way; also: nearly all actives have a fitted effect of over 50% in size
#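 Luminescence was read after Dual-Glo reagent and a 10 min room-temperature incubation. Values were normalized to vehicle (0% activity) and zero RLU (-100% activity). Reporter HEK293 cells had been exposed to compounds (up to 57.5 uM final) for 24 h.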
# An asterisk follows results filed as active; ? = inconclusive; . = not tested or not shown; [ ] = another dose, or the depositor's remark. Potency is read from the fitted curve at half-maximal effect.
# Order of results – PMP22 txn	HTT prom inh
O=S1(=O)c2cccc3cccc(c23)N1CCCN1CCN(c2ccc(F)cc2)CC1
 : .	-13%
CCOc1ccccc1N(CC)C(=O)c1noc2c1COc1ccc(C)cc1-2
 : ?	-30%
CC[N+](CC)(CC(=O)Nc1c(C)cccc1C)Cc1ccccc1
 : .	-5%
CC(NC(=O)C(=O)Nc1c2c(nn1-c1ccc(F)cc1)CSC2)c1ccccc1 (stereo not drawn)
 : ?	-16%
Cc1ccc(N(C)C(=O)Cn2cnc3onc(-c4ccc(F)cc4)c3c2=O)cc1C
 : ?	?
COc1ccc(Cn2ccc3nc(C)c(C(=O)N4CCN(c5ccc(OC)cc5)CC4)cc3c2=O)cc1
 : 5%	?
CC(=O)c1ccc(NC(=O)c2nc3ccccc3n(C)c2=O)cc1
 : -2%	61%[activator]
CCOC(=O)c1cnc2c(C)c(Cl)ccc2c1NCCc1ccc(OC)c(OC)c1
 : -18%	-31%
O=C(COc1ccccc1)NCc1ccc2c(c1)CCN2C(=O)c1ccc(F)cc1
 : -23%	-30%
COc1ccc(CCNC(=O)CCc2c(C)nc3c(c(C)nn3-c3ccc(C)c(C)c3)c2C)c(OC)c1OC
 : -36%	-10%
O=C(CCC(=O)N1CCOc2ccccc21)NCc1cccs1
 : 0%	-3%
COc1cccc(-n2c(=O)c3c(C)c(C)sc3n(CC(=O)Nc3ccccc3OC)c2=O)c1
 : ?	-7%
COc1ccc(C(=O)N(Cc2ccc(N(C)C)cc2)Cc2ccco2)cc1Cl
 : ?	?
CCOC(=O)C(=O)Nc1c(C(=O)Nc2cccc(F)c2)oc2ccccc12
 : -4%	-1%
COc1ccc(N2CCN(CCCNC(=O)c3cc(Nc4ccc(OC)cc4OC)nc4ccccc34)CC2)cc1
 : ?	-19%
CCc1ccc2oc(-c3ccc(C)c(NC(=O)/C=C/c4ccco4)c3)nc2c1
 : -7%	19%
O=C(CSc1nc2ccccc2n1Cc1c(F)cccc1Cl)N1CCN(c2ccc(F)cc2)CC1
 : -23%	-1%
Cc1cccc(N2CCN(c3ncnc4c3nc3n4CCCCC3)CC2C)c1 (stereo not drawn)
 : 4.4µM*	5µM*
O=C1c2cccc3c2[C@H](CCC3)CN1[C@@H]1CN2CCC1CC2
 : .	6%
O=C(Nc1c(-c2ccccc2)nc2ccccn12)c1ccc(Br)cc1
 : -9%	-11%
COc1ccc(-c2nc(CS(=O)CC(=O)NCc3ccccc3Cl)c(C)o2)cc1OC (stereo not drawn)
 : ?	-2%
COc1ccc(-c2cc(C(F)(F)F)nc(NCc3ccc(F)cc3)n2)cc1
 : ?	-25%
COc1ccc(N2CCN(C3(c4ccccc4)C(=O)c4ccccc4C3=O)CC2)cc1
 : -4%	?
CCOc1ccc(-c2nc3c(C#N)c[nH]n3c2NC2CCCC2)cc1
 : ?	4%
O=C(CC1Oc2ccccc2NC1=O)NCc1ccc(F)cc1 (stereo not drawn)
 : -7%	-6%
COc1ccc(CCNC(=O)Cc2c(C)c3cc4c(C(C)(C)C)coc4c(C)c3oc2=O)cc1OC
 : ?	4%
COc1ccc(CNC(=O)C(C)n2c(=O)cc(C)c3c(C)nn(-c4ccccc4)c32)cc1 (stereo not drawn)
 : ?	-21%
Cc1ccc(O)c(NC(=O)CCS(=O)(=O)c2nc(-c3ccc4c(c3)OCO4)cc(C(F)(F)F)n2)c1
 : ?	23%
CCCSc1ncc(Cl)c(C(=O)N(Cc2ccccc2)c2ccc(OC)cc2)n1
 : ?	?
CCCN1C(=O)C(Cc2nc3ccccc3c(=O)n2CC)c2ccccc21 (stereo not drawn)
 : -20%	-8%

# Order of results – PMP22 txn	HTT prom inh
CCOc1ccc(NC(=O)c2cccc(N3CCCS3(=O)=O)c2)cc1
 : 6%	7%
CCc1cccc(NC(=O)Cn2c(C(=O)OC)cc3sc(Cl)cc32)c1
 : -2%	-23%
CCCCN(Cc1ccco1)C(=O)c1cc2c(s1)-c1c(C)cccc1OC2
 : ?	-25%
Cc1ccc(-c2nnc(NC(=O)c3ccc4c(c3)OCCO4)o2)c(C)c1
 : ?	-11%
Cc1ccc(N(C)C(=O)C2CCN(S(=O)(=O)c3cn(C)cn3)CC2)cc1
 : -7%	-14%
CCCNC(=O)c1c(C)nn(-c2cccc(C)c2)c1-n1cccc1
 : 0%	-26%
CC(Oc1ccc(Br)cc1)C(=O)Nc1ncn[nH]1 (stereo not drawn)
 : -1%	-7%
O=C(Nc1ccc(F)cc1C(F)(F)F)C1CCN(c2ncccn2)CC1
 : 5%	-10%
COc1ccc(-n2c(C)c([N+](=O)[O-])c3ccc(O)cc32)cc1
 : .	-5%
OC[C@H]1O[C@@H](O[C@H]2[C@@H](O)[C@@](O)(CO)O[C@@H]2CO)[C@H](O)[C@@H](O)[C@@H]1O
 : .	-13%
CCOC(=O)c1cc(-c2ccc(C)cc2)n(CC(=O)Nc2cccc(C(C)=O)c2)c1C
 : 1%	-11%
COc1ccc(-n2c(=O)c3c4c(sc3n(Cc3ccc(F)cc3)c2=O)CN(C(C)=O)CC4)c(OC)c1
 : -27%	-15%
CCCOc1ccc(C2c3c(-c4ccccc4O)n[nH]c3C(=O)N2Cc2ccncc2)cc1OCC (stereo not drawn)
 : ?	-24%
C[N+](C)(C)CC[N+]1(C)Cc2c(Cl)c(Cl)c(Cl)c(Cl)c2C1
 : .	11%
Cc1ccc2cccc(NC(=O)c3ccc(-c4cc(Cl)ccc4Cl)o3)c2n1
 : -1%	-18%
Cc1ccc(-c2cnc(C3CC3)o2)cc1S(=O)(=O)Nc1cccc(C#N)c1
 : ?	?
O=S(=O)(NCC(c1ccco1)S(=O)(=O)c1cccs1)c1ccccc1 (stereo not drawn)
 : ?	-10%
CCOC(=O)c1ccc(CN(Cc2ccccc2)S(=O)(=O)c2ccc(Cl)cc2)cc1
 : -17%	?
Cc1ccc(CN2C(=O)CC(c3ccc(Cl)cc3)c3c(C)nn(-c4nc(C)cc(C)n4)c32)cc1 (stereo not drawn)
 : -19%	?
CCOC(=O)c1[nH]c2ccccc2c1NC(=O)c1cc(OC)cc(OC)c1
 : -10%	-2%
Cc1cc(C)cc(NC(=O)Cn2nnc(C(=O)NCc3ccccc3Cl)c2N)c1
 : ?	-28%
COc1ccc(NC(=O)CSc2c3c(nc4ccccc24)CCC3)cc1Cl
 : -11%	-15%
COc1ccc(CNC(=O)c2ccc3c(c2)N(Cc2cccc(Cl)c2)C(=O)c2ccccc2S3)c(OC)c1
 : 21%	-20%
O=S(=O)(NCC(c1ccco1)S(=O)(=O)c1ccccc1)c1cc(F)ccc1F (stereo not drawn)
 : ?	-13%
O=S1(=O)OC(c2ccc(O)cc2)(c2ccc(O)cc2)c2ccccc21
 : .	-5%
Cc1cc(C)cc(C(=O)NCCc2sc(-c3ccc(F)cc3)nc2C)c1
 : ?	-23%
Cc1cc(NC(=O)CN2C(=O)CSc3ccc(S(=O)(=O)N(C)C)cc32)ccc1Br
 : 12%	?
CCOC(=O)N1CCc2c(sc(NCc3ccc(N(C)C)cc3)c2C(=O)Nc2ccc(OC)cc2)C1
 : -4%	-29%
COc1ccc(CCNC(=O)Cn2cc(S(=O)(=O)Cc3ccccc3Cl)c3ccccc32)cc1OC
 : -5%	-9%
CC(=O)N1c2c(cc(Br)cc2S(=O)(=O)NCc2ccccc2Cl)CC1C (stereo not drawn)
 : ?	-20%

# Whole records, looked up by structure. Order of screens: PMP22 txn, HTT prom inh
# COc1ccc(CNC(=O)c2ccc3c(c2)N(Cc2cccc(Cl)c2)C(=O)c2ccccc2S3)c(OC)c1 in the list: 21%, -20%
# Cc1ccc(-c2nnc(NC(=O)c3ccc4c(c3)OCCO4)o2)c(C)c1 in the list: ?, -11%
# CCCCN(Cc1ccco1)C(=O)c1cc2c(s1)-c1c(C)cccc1OC2 in the list: ?, -25%

# The list continues.
# Order of results – PMP22 txn	HTT prom inh
COc1ccc(CNC(=O)CN(c2ccccc2)S(=O)(=O)N(C)C)cc1
 : -7%	3%
O=C(CSC1=Nc2ccccc2C2=NC(CCC(=O)NC3CCCCC3)C(=O)N12)Nc1cccc(Cl)c1 (stereo not drawn)
 : 5%	?
CN1CCN(c2ncc3c(n2)CCN(Cc2ccccc2Cl)C3)CC1
 : -24%	-14%
CCc1ccc(NC(=O)Cn2cnc3nc4c(cc3c2=O)CCCC4)cc1
 : 12%	-2%
CCCN1Cc2cccc(C(=O)Nc3ccc(C(C)=O)cc3)c2C1=O
 : 7%	-23%
Cc1ccc(C(c2sc3nc(-c4ccco4)nn3c2O)N2CCN(c3ccc(F)cc3)CC2)cc1 (stereo not drawn)
 : -6%	16%
O=C(Nc1cn[nH]c1-c1nc2ccc(CN3CCOCC3)cc2[nH]1)NC1CC1
 : .	?
Cc1cccc2nc(-c3ccco3)c(Nc3ccc4c(c3)OCO4)n12
 : -13%	?
O=C(O)CCCC[C@@H]1SC[C@@H]2NC(=O)N[C@@H]21
 : .	24%
Cc1ccc(-n2c(=O)c3c4c(sc3n(Cc3ccccc3C)c2=O)CCC4)cc1C
 : -17%	-15%
CCOC(=O)c1ccc(CN(Cc2ccc(F)cc2)S(=O)(=O)c2ccc(F)cc2)cc1
 : -12%	?
Cc1ccc(Cl)cc1N1CCN(CCCNC(=O)C2COc3ccccc3C2)CC1 (stereo not drawn)
 : ?	?
Cc1ccc2oc3c(c(=O)c2c1)C(c1ccc(O)cc1)N(CCCN(C)C)C3=O (stereo not drawn)
 : -2%	-13%
CCCSCCCNC(=O)c1cc2n(n1)CCCN(Cc1ccc(C)cc1)C2=O
 : -29%	?
O=C(NC1CC1)c1ccc(Cn2c(SCc3ccc(F)cc3)nc3cccnc32)cc1
 : -26%	-8%
Cc1ccc(CNC(=O)C(CC(C)C)N2Cc3ccccc3C2=O)cc1 (stereo not drawn)
 : -16%	-29%
COc1cc(Nc2ncc3c(n2)CCN(Cc2cc(F)cc(F)c2)C3)cc(OC)c1
 : ?	?
CCCOc1ccc(CNC(=O)C(CC)n2nc(C)c3sc4ccccc4c3c2=O)cc1 (stereo not drawn)
 : ?	0%
Cc1ccc(-c2csc(=Nc3ccccc3)n2CCCO)cc1
 : ?	?
Cc1ccccc1CN1c2ccccc2-c2nc(SCC(=O)Nc3cc(F)ccc3F)ncc2S1(=O)=O
 : ?	?
COc1ccc(CN2CCc3c(c(=O)n4ncc(C(=O)N5CCN(c6ccccc6F)CC5)c4n3C)C2)cc1
 : 9%	?
COc1ccc(CCNC(=O)Cn2c(=O)c3cccn3c3ccc(F)cc32)cc1OC
 : -27%	-5%
Cc1onc(-c2ccccc2Cl)c1C(=O)Oc1ccc(Br)cc1
 : -23%	-9%
Cc1ccc2c(=O)c(C(=O)c3ccc(F)cc3)cn(CC(=O)NCCc3ccccc3)c2n1
 : -33%	5%
COc1cccc(N2CC(NC(=O)COc3ccccc3F)CC2=O)c1 (stereo not drawn)
 : -3%	-21%
O=c1c2c3c(sc2n(Cc2cc(=O)n4ccccc4n2)c(=O)n1-c1ccc(Cl)cc1)CCC3
 : -18%	13%
COc1ccccc1OCC(=O)NCC(c1ccc(Cl)cc1)N1CCOCC1 (stereo not drawn)
 : 3%	-21%
COc1ccc(C2CC(=O)c3cc(-c4nc(-c5cccc([N+](=O)[O-])c5)cs4)c(=O)n(-c4ccccc4)c3C2)cc1 (stereo not drawn)
 : -16%	-5%
Cc1ccc(S(=O)(=O)c2nnn3c2nc(N2CCCC2)c2sccc23)cc1
 : ?	-4%
CCOC(=O)c1ccc(Nc2nc3nonc3nc2Nc2cccc(C)c2C)cc1
 : 11µM*	2.2µM*

# As entered above:
# In HTT prom inh, CCCOc1ccc(CNC(=O)C(CC)n2nc(C)c3sc4ccccc4c3c2=O)cc1 (stereo not drawn) has the entry 0%
# In PMP22 txn, CCOC(=O)c1ccc(Nc2nc3nonc3nc2Nc2cccc(C)c2C)cc1 has the entry 11µM*
# In HTT prom inh, Cc1onc(-c2ccccc2Cl)c1C(=O)Oc1ccc(Br)cc1 has the entry -9%
# In HTT prom inh, O=C(NC1CC1)c1ccc(Cn2c(SCc3ccc(F)cc3)nc3cccnc32)cc1 has the entry -8%

# Further structures:
# Order of results – PMP22 txn	HTT prom inh
Cc1ccc(Cl)cc1NC(=O)c1sc(-n2nc(C)c(Cc3ccc4c(c3)OCO4)c2C)nc1C
 : -47%	-3%
O=C1COc2ccc(-c3cc(-c4ccccc4)c4c(n3)-c3cc(Cl)ccc3OC4)cc2N1
 : -9%	-12%
COc1ccc(Nc2nc(N)nc(CSc3nc4ccccc4s3)n2)cc1
 : ?	?
CCCCCCCC(=O)OCC(O)CO (stereo not drawn)
 : .	0%
Cc1cccc(N2CCN(C(=O)Cc3c(C(=O)O)c(C)cn3C)CC2)c1C
 : ?	-26%
CCN(CC)C(=O)Cn1cc(SCC(=O)Nc2cccc(F)c2)c2ccccc21
 : -14%	-10%
Cc1cccc(C(=O)Nc2nnc(S(=O)(=O)N(C)Cc3ccccc3)s2)c1
 : 7%	-10%
CCc1ccc(NC(=O)c2ccc3nc(C(C)C)oc3c2)cc1
 : ?	-21%
CC(C)c1ccc(NC(=O)c2ccc3c(O)c(S(=O)(=O)c4ccccc4)c(=O)[nH]c3c2)cc1
 : 5%	1%
O=C(NCc1ccc(Cl)cc1)c1ccc(NC(=O)N2CC3CCCN3c3ccccc32)cc1 (stereo not drawn)
 : 3%	?
Cc1ccc(Cl)cc1N1CCN(C(=O)c2cn(C)c3ccc(S(=O)(=O)N4CCCCC4)cc3c2=O)CC1
 : -6%	-17%[11.5 µM]
